Source: PubChem BioAssay
Ecoli rRNA inh: selective bacterial rRNA inhibition in E. coli | GFP signal change (wild-type ribosome), % (no concentration beside the values) | AID 720706 | E. coli WT GFP vs humanized-ribosome RFP mutants, fluorescence, 24 h; hits give low values; DMSO median 0, no signal -100 | 350,000 tested, 1.6% active;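 active = significant combined selectivity score with lowered wild-type GFP, culture density cut under 30%, mutant RFP and density less affected; inactive = any of these conditions unmet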; also: one replicate is shown; some compounds called inactive have numbers as strong as hits
Ecoli rRNA inh OD600: recorded beside Ecoli rRNA inh, whose call it bears; OD600 change, %; measured here: OD600 growth;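 optical density of the mix in the first replicate; 0 = DMSO median and -100 = no signal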
Ecoli rRNA inh RFP: also measured in Ecoli rRNA inh; calls as there; RFP signal change, %; measured here: RFP humanized mutant strains;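 first replicate; 0 = DMSO median and -100 = no signal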
Starred values were filed as active, the others as inactive; & = joins results of further samples. Not all compounds are listed; count on the stated rates, not on these rows.

Each structure is followed by: Ecoli rRNA inh, Ecoli rRNA inh OD600, Ecoli rRNA inh RFP
- CCCN1C[C@@H](C)[C@@H](OC)CN(C)C(=O)c2cc(NC(=O)CC(F)(F)F)ccc2OC[C@@H]1C
→ 0, -1, 1.7
- O=C(C[C@H]1C[C@@H]2c3cc(NC(=O)CC4CC4)ccc3O[C@@H]2[C@@H](CO)O1)NCc1ccc(-c2ccccc2)cc1
→ -9, -34, 13
- C[C@@H]1CN([C@H](C)CO)C(=O)c2cc(NC(=O)c3ccncc3)ccc2O[C@@H](C)CCCCO[C@@H]1CN(C)CC1CCCCC1
→ 1, -3, 2.2
- CC(C)NC(=O)N(C)C[C@@H]1Oc2ccc(NC(=O)NC3CCCCC3)cc2C(=O)N([C@H](C)CO)C[C@H]1C
→ 4, 1, -1.5
- CC(=O)Nc1ccc2nc(NC(=O)CS(=O)(=O)c3ccc(F)cc3)sc2c1
→ 6, 8, -0.4
- C/C=C/c1ccc2c(c1)O[C@H](CN(C)C(=O)Nc1cc(F)ccc1F)[C@@H](C)CN([C@H](C)CO)S2(=O)=O
→ -8, -26, -4.0
- O=C(N[C@@H]1CC[C@H](CCNS(=O)(=O)c2ccc(F)cc2)O[C@H]1CO)c1ccccn1
→ 1, 4, -3.0
- COc1ccccc1C(=O)N1C[C@H]2[C@@H](c3ccccc31)[C@@H](CO)N2CC1CCOCC1
→ 0, -8, -0.2
- CC1(c2ccc(Cl)cc2Cl)NC(=O)N(CC(=O)NCCC2=CCCCC2)C1=O (stereo unspecified)
→ -5, -35, -4.2
- C[C@@H]1CN([C@@H](C)CO)C(=O)c2cccc(NS(=O)(=O)c3cccs3)c2O[C@@H]1CN(C)S(C)(=O)=O
→ 0, -1, -1.2
- CN1CCCCC(NC(=O)c2cccc(C(F)(F)F)c2)C1=O (stereo unspecified)
→ 6, 3, 2.1
- Cc1ccc(S(=O)(=O)Nc2ccc3c(c2)C(=O)N([C@@H](C)CO)C[C@H](C)[C@H](CN(C)C(=O)C2CCCCC2)OCCCC[C@@H](C)O3)cc1
→ -1, -11, 0.5
- COc1ccc(NC(=O)N(C)C[C@H]2Oc3ncc(-c4ccc(C#N)cc4)cc3C(=O)N([C@@H](C)CO)C[C@H]2C)cc1
→ -5, -8, -3.6
- CNC[C@@H]1Oc2ccc(NS(=O)(=O)c3ccc(Cl)cc3)cc2C(=O)N([C@@H](C)CO)C[C@@H]1C
→ 0, 6, 2.6
- CN(C)C(=O)[C@@H]1[C@@H](CO)[C@@H]2Cn3c(ccc(C4=CCCCC4)c3=O)[C@H]1N2Cc1cccnc1
→ 3, -2, 0.2
- CC(C)[C@H](C)NC(=O)N(C)C[C@@H]1OCc2ccccc2-c2c(n(C)c3ccccc23)C(=O)N([C@@H](C)CO)C[C@@H]1C
→ -4, 7, -3.2
- Cc1cccc(-c2ccc([C@H]3[C@H](CO)N4CCCCN(Cc5ccncc5)C[C@@H]34)cc2)c1
→ -5, 6, 3.1
- COCC#Cc1ccc([C@@H]2[C@H]3CN(S(=O)(=O)c4ccccc4C)CCCCN3[C@H]2CO)cc1
→ 2, -30, 6.8
- COCC(=O)N1CC2(CN(Cc3ccccc3Cl)C2)c2c([nH]c3cc(OC)ccc23)[C@@H]1CO
→ -5, -41, 10
- O=C(N[C@H]1CC[C@H](CC(=O)N2CCCCC2)O[C@@H]1CO)c1ccc2c(c1)OCO2
→ -1, 2, -2.2
- CCCNC(=O)NC[C@@H]1[C@@H](c2ccc(C3=CCCCC3)cc2)[C@@H](CO)N1C(C)=O
→ -5, -16, 0.1
- Cc1noc(C)c1NC(=O)Nc1ccc2c(c1)C(=O)N([C@H](C)CO)C[C@@H](C)[C@H](CN(C)S(=O)(=O)c1cn(C)cn1)OCCCC[C@H](C)O2
→ 4, 1, -0.1
- Cc1ccc(S(=O)(=O)N(C)C[C@H]2Oc3ccc(NC(=O)Cc4cn(C)c5ccccc45)cc3C(=O)N([C@@H](C)CO)C[C@H]2C)cc1
→ 1, 4, -0.1
- CCC(=O)Nc1ccc2c(c1)OC[C@@H](C)N(C(=O)CC1CC1)C[C@H](C)[C@@H](OC)CN(C)C2=O
→ -1, -2, -0.9
- COc1ccccc1-c1cnc(C(O)c2cccc(F)c2)[nH]1 (stereo unspecified)
→ 0, 2, -0.2
- CC=Cc1ccc2n(c1=O)C[C@H]1[C@H](CO)[C@@H](C(=O)OC)N(Cc3ccccc3)[C@@H]21 (mixture of isomers)
→ -1, -1, 4.6
- CN1CCN(C(=O)C[C@H]2C[C@@H]3c4cc(NC(=O)C5CCC5)ccc4O[C@@H]3[C@@H](CO)O2)CC1
→ 9, 8, 0.9
- COc1ccc(NC(=O)Nc2ccc3c(c2)C(=O)N([C@@H](C)CO)C[C@@H](C)[C@@H](CN(C)C(=O)Nc2ccc(F)cc2)O3)cc1
→ 1, 11, -0.1
- CC(C)NC(=O)N(C)C[C@@H]1Oc2c(NC(=O)C3CC3)cccc2C(=O)N([C@H](C)CO)C[C@H]1C
→ 0, 5, -2.3
- COc1ccc(S(=O)(=O)N(C)C[C@H]2Oc3ccc(NC(=O)CCCCCC(=O)Nc4ccccc4N)cc3CC(=O)N([C@@H](C)CO)C[C@@H]2C)cc1
→ -1, 1, -3.6

A draw from above in order of length of the SMILES, falling.
Each structure is followed by: Ecoli rRNA inh, Ecoli rRNA inh OD600, Ecoli rRNA inh RFP
- Cc1ccc(S(=O)(=O)Nc2ccc3c(c2)C(=O)N([C@@H](C)CO)C[C@H](C)[C@H](CN(C)C(=O)C2CCCCC2)OCCCC[C@@H](C)O3)cc1
→ -1, -11, 0.5
- CN1CCN(C(=O)C[C@H]2C[C@@H]3c4cc(NC(=O)C5CCC5)ccc4O[C@@H]3[C@@H](CO)O2)CC1
→ 9, 8, 0.9
- O=C(N[C@@H]1CC[C@H](CCNS(=O)(=O)c2ccc(F)cc2)O[C@H]1CO)c1ccccn1
→ 1, 4, -3.0

Three compounds out of the list above, arranged by their value in Ecoli rRNA inh, low to high.
Each structure is followed by: Ecoli rRNA inh, Ecoli rRNA inh OD600, Ecoli rRNA inh RFP
- CC1(c2ccc(Cl)cc2Cl)NC(=O)N(CC(=O)NCCC2=CCCCC2)C1=O (stereo unspecified)
→ -5, -35, -4.2
- COc1ccccc1C(=O)N1C[C@H]2[C@@H](c3ccccc31)[C@@H](CO)N2CC1CCOCC1
→ 0, -8, -0.2
- CN1CCN(C(=O)C[C@H]2C[C@@H]3c4cc(NC(=O)C5CCC5)ccc4O[C@@H]3[C@@H](CO)O2)CC1
→ 9, 8, 0.9

Additional results follow:
molecule,Ecoli rRNA inh,Ecoli rRNA inh OD600,Ecoli rRNA inh RFP
COCC(=O)N1C[C@H](C)[C@@H](OC)CN(C)C(=O)c2ccc(NS(C)(=O)=O)cc2OC[C@@H]1C,0,2,1.4
CCCNC(=O)N(C)C[C@@H]1Oc2ncc(/C=C/c3ccccc3)cc2C(=O)N([C@@H](C)CO)C[C@H]1C,-2,-1,-0.7
Cc1ccccc1CN(C)C[C@H]1OCc2cn(nn2)CCCC(=O)N([C@@H](C)CO)C[C@@H]1C,0,6,-2.2
O=C1N[C@@H](c2ccccc2)COCc2cn(nn2)CC[C@H]1Cc1ccc(Cl)cc1,0,1,-1.7
COc1ccc(C#Cc2ccc3c(c2)O[C@@H](CN(C)S(=O)(=O)c2ccccc2F)[C@H](C)CN([C@H](C)CO)S3(=O)=O)cc1,5,10,-3.5
C[C@@H]1CN([C@@H](C)CO)C(=O)c2cc(NC(=O)Nc3ccc(F)cc3)ccc2O[C@@H]1CN(C)Cc1ccc(Cl)c(Cl)c1,-4,-14,1.1
C[C@@H]1CN([C@H](C)CO)C(=O)Cc2cc(NC(=O)Nc3cccc4ccccc34)ccc2O[C@@H]1CN(C)Cc1ccc(C(=O)Nc2ccccc2N)cc1,-3,4,3.9
C[C@H](CO)N1C[C@H](C)[C@@H](CN(C)CC2CCCCC2)OCCCC[C@H](C)Oc2ccc(NS(=O)(=O)c3ccccc3)cc2C1=O,0,-6,2.7
CCCNC(=O)N1C[C@@H]2N[C@H](C1)C2c1ccc(-c2cccc(F)c2)cc1 (stereo partly specified),-1&-8,2&-5,-3.9&0.8
CCN(CC)CCNc1ccc(CO)c2oc3cc(Cl)ccc3c(=O)c12,0,-29,5.7
CC(C)c1cn(CC[C@H]2CC[C@H](NC(=O)Nc3cc(Cl)cc(Cl)c3)[C@@H](CO)O2)nn1,-19,-43,9.5
C[C@@H]1CN([C@H](C)CO)C(=O)Cc2cc(NS(=O)(=O)c3cn(C)cn3)ccc2O[C@H]1CN(C)C(=O)Nc1ccc2c(c1)OCO2,3,9,0.8
C[C@@H]1CN([C@H](C)CO)C(=O)c2cccc(NC(=O)c3ccncc3)c2O[C@H]1CN(C)C(=O)NC1CCCCC1,4,3,0.8
CCC(=O)N(C)C[C@@H]1Oc2ncc(-c3ccc(C(=O)N(C)C)cc3)cc2C(=O)N([C@@H](C)CO)C[C@@H]1C,6,3,-1.4
N#C[C@H]1[C@@H](c2ccc(C3=CCCC3)cc2)[C@H](CO)N1C(=O)C1CC1,1,2,0.0
CCCNC(=O)C[C@H]1CC[C@H]2[C@@H](COC[C@@H](O)CN2C(=O)C2CCOCC2)O1,6,6,16
COc1ccc(CN(C)C[C@@H]2Oc3ccc(NC(=O)CCCN(C)C)cc3C(=O)N([C@@H](C)CO)C[C@H]2C)cc1,4,-1,1.1
C[C@H]1CN([C@@H](C)CO)C(=O)c2cc(NC(=O)Nc3cccc4ccccc34)ccc2O[C@H]1CN(C)C(=O)Nc1ccc(F)cc1,0,3,-0.7
COc1cc(C(=O)N2CCCCC2c2cc(C(=O)NC(C)C)no2)cc(OC)c1C (stereo unspecified),3,-6,-0.5
C[C@H](CO)N1C[C@H](C)[C@H](CN(C)C)Oc2c(NC(=O)C3CC3)cccc2C1=O,3,10,1.8
CCC(=O)Nc1ccc2c(c1)OC[C@H](C)N(C(=O)Cc1ccccn1)C[C@@H](C)[C@H](OC)CN(C)C2=O,2,-2,1.9
COc1ccc(NC(=O)N(C)C[C@H]2Oc3c(NC(=O)c4nc5ccccc5s4)cccc3C(=O)N([C@H](C)CO)C[C@H]2C)cc1,-5,-7,1.7
COc1ccc(S(=O)(=O)N(C)C[C@H]2Oc3ccc(NC(=O)CCCN(C)C)cc3CC(=O)N([C@@H](C)CO)C[C@H]2C)cc1,-1,-9,0.5
C[C@H](CO)N1C[C@H](C)[C@@H](CN(C)Cc2ccc(Cl)c(Cl)c2)Oc2c(NC(=O)NC3CCCCC3)cccc2C1=O,0,3,-0.8
O=C(C[C@@H]1CC[C@H]2[C@@H](COC[C@H](O)CN2C(=O)Nc2ccc(C(F)(F)F)cc2)O1)NCCc1ccncc1,-57,-76,-16
C[C@H]1CN([C@@H](C)CO)C(=O)CCCn2nncc2CO[C@H]1CN(C)C(=O)Cc1ccccc1,1&0,6&1,-1.6&0.5
COC(=O)C1=C(C)N(C)C(=NCc2ccccc2)NC1c1cccc(Cl)c1 (stereo unspecified),8,1,9.6
O=C(C(=O)N1CCN(c2ccccc2F)CC1)c1ccccc1,-15,-15,-2.0
COc1ccc(S(=O)(=O)N2CCC(C(=O)NCCC(=O)NCc3ccccn3)CC2)cc1,-1,4,-2.5
C[C@H]1CN([C@@H](C)CO)C(=O)c2cc(NS(=O)(=O)c3ccc(F)cc3)ccc2O[C@@H]1CN(C)Cc1ccncc1,0,-5,-2.3
CCCCCC(=O)N1C[C@@H](O)[C@H](n2cc(-c3ccc(F)cc3)nn2)C[C@@H]1c1ccc(OC)cc1,-3,-35,23
O=C(CCN1CCCCC1)NCC[C@H]1CC[C@H](NC(=O)Nc2ccc(F)cc2)[C@H](CO)O1,3,7,-1.7
O=[N+]([O-])c1cnccc1-n1nnc2ccccc21,8,10,-0.1
CC(C)(C)c1ccc(S(=O)(=O)Nc2ccc(C(O)(C(F)(F)F)C(F)(F)F)cc2)cc1,-43,-79,-14
N#C[C@@H]1[C@H](c2ccc(-c3ccccc3F)cc2)[C@@H](CO)N1C(=O)Cc1ccccc1,-53,-72,-4.1
C[C@@H]1CCCCO[C@@H](CN(C)S(=O)(=O)c2cn(C)cn2)[C@@H](C)CN([C@@H](C)CO)C(=O)c2cc(NS(=O)(=O)c3ccccc3)ccc2O1,3,3,0.0
CN(C)C(=O)c1cccc(-c2ccc([C@H]3[C@H]4CN(CCC(F)(F)F)CCCCN4[C@H]3CO)cc2)c1,5,4,-2.5
COc1ccc(CCNC(=O)CN(c2ccccc2)S(=O)(=O)c2ccccc2)cc1,-2,20,-8.3
O=C(C[C@@H]1CC[C@@H](NC(=O)Nc2cc(F)ccc2F)[C@H](CO)O1)Nc1ccccc1,1,3,-2.8
N#C[C@H]1[C@@H](c2ccccc2-c2ccccc2)[C@@H](CO)N1c1ncc(-c2ccccc2)s1,-2,17,1.4
CC(C)CC#Cc1ccc([C@@H]2[C@H]3CN(C(=O)NC4CCCC4)CC(=O)N3[C@H]2CO)cc1,-51,-75,-7.7
CC(C)(C)c1ccc(CC(=O)N2CCC2(C)C(=O)NS(=O)(=O)c2ccc(Cl)cc2)cc1 (stereo unspecified),-14,-18,-1.2
CNC[C@H]1Oc2ccc(NC(=O)Nc3ccc4c(c3)OCO4)cc2CC(=O)N([C@H](C)CO)C[C@@H]1C,1,-8,-2.2
CCCC(=O)N1C[C@@H]2[C@H](c3ccccc31)[C@@H](CO)N2C(=O)Nc1ccc(F)cc1,-1,-1,0.7
C[C@H]1CN([C@@H](C)CO)C(=O)Cc2cc(NC(=O)Nc3ccccc3)ccc2O[C@H]1CN(C)C,4,5,-2.9
C[C@@H]1CCCCO[C@@H](CN(C)Cc2ccc(C(=O)O)cc2)[C@H](C)CN([C@H](C)CO)C(=O)c2cc(NC(=O)CCC(F)(F)F)ccc2O1,0,6,-1.1
CNC[C@H]1Oc2cc(C#Cc3ccccc3OC)ccc2S(=O)(=O)N([C@H](C)CO)C[C@@H]1C,-3,7,10.0
